B2AR ag: agonists of human beta-2 adrenergic receptor inducing internalization; 340,000 tested, 0.43% active; P07550; response, % (no concentration beside the values); Am2.2-beta2AR cells, FAP receptor internalization, flow cytometry; reference of the scale not given here;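 active = response above a set limit, near 3 SD of response in nonfluorescent compounds, cut at about 42% in these data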;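 also: stock transfer was 100 nL into about 11 µL; a reference agonist was the positive control; negative values mostly stem from fluorescent compounds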
E coli growth: E. coli growth inhibition. Escherichia coli growth, OD600, 23 h; active compounds read low. OD600 absorbance (concentration not given with the values). 330,000 tested, 0.21% active. AID 1053175;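 active = OD600 absorbance below the run mean of sample wells minus 3.6 SD, in any replicate, cut at about 0.56 in these data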;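 also: stock transfer was 300 nL into about 60 µL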
rRNA inh HTS: inhibitors of bacterial rRNA selective over humanized ribosomes; E. coli WT GFP vs humanized-ribosome RFP mutants, fluorescence, 24 h; active compounds read low; DMSO median 0, no signal -100; GFP signal change (wild-type ribosome), % (concentration not given with the values); 350,000 tested, 1.6% active;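 active = significant combined selectivity score with lowered wild-type GFP, culture density cut under 30%, mutant RFP and density less affected; inactive = any of these conditions unmet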; also: one replicate is shown; some compounds called inactive have numbers as strong as hits
UCH37 inh: inhibitors of human deubiquitinating enzyme UCH37; Q9Y5K5; purified proteasome/UCH37, Ub-AMC cleavage fluorescence; inhibition, % (no concentration beside the values); 330,000 tested, 0.33% active; AID 588478;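 active = mean of two replicates above 20%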;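 also: 0% = compound-free wells with enzyme and 100% = wells lacking proteasome; stock transfer was 100 nL into about 20 µL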
Target sequence (Q9Y5K5 whole entry, looked up): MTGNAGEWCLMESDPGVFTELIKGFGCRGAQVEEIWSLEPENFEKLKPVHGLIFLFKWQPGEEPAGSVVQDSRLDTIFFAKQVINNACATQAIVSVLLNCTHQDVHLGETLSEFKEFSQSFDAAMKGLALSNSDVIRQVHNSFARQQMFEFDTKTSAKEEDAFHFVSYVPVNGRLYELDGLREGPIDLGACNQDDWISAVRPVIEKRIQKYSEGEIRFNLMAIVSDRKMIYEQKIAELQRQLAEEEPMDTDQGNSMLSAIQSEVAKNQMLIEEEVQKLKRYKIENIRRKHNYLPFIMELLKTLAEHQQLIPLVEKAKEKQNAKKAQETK
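Assay system: Proteasome-bound UCH37. Buffer or medium: pH 7.4 Tris-HCl (50 mM) with ovalbumin, ATP-MgCl2, DTT. Incubation: 30 min preincubation with enzyme, 25 min cleavage at room temperature. Measured by: fluorescence, ex 355 nm, em 460 nm. Read-out basis: percent inhibition. Control set: wells without proteasome as full block, compound-free enzyme plus substrate as uninhibited.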
HNF4A DNA FP: change in binding of human HNF4 alpha to DNA; P41235; HNF4a-FITC DNA binding, fluorescence polarization, 1 h; activity change, % at 10 µM; 360,000 tested, 0.3% active; AID 1224865; in the data active = activity change above about 30%, passing the limit was not always enough;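 also: controls were the assay level and a saturating level of protein; the project sought stronger binding though the title names inhibitors; some compounds called inactive have numbers as strong as hits; positive values seem to mean higher polarization but the record does not say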
Target sequence (P41235 whole entry, looked up): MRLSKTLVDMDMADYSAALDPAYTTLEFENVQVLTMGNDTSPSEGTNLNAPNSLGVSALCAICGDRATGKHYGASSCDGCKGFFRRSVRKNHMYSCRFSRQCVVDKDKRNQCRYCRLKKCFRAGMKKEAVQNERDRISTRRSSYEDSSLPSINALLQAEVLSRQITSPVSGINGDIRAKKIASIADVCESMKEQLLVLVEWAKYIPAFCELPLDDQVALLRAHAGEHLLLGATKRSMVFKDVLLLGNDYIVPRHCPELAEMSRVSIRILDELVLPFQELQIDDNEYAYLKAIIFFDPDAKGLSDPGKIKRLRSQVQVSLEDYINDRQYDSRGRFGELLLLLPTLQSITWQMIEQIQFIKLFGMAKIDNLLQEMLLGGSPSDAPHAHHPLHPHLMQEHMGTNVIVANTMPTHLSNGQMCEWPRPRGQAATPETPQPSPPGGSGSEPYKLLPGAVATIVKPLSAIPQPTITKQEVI
FGF22 binding: FGF22 (human) thermal shift binding; recombinant FGF22 thermal shift, SYPRO orange fluorescence; percent of sucrose octasulfate shift, DMSO zero; 340,000 tested, 1.5% active; Q9HCT0; calls only at 9.99 µM;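 active = melting point raised past a set limit in the mean and every replicate; three in four hits are not shown here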
Target sequence (Q9HCT0 whole entry, looked up): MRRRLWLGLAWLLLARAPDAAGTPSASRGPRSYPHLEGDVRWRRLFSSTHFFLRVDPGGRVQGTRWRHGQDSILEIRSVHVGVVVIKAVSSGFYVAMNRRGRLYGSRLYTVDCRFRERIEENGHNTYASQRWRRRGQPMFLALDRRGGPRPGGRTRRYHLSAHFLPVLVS
ALR inh: blocks human ALR sulfhydryl oxidase activity | P55789 | purified ALR, DTT oxidation, H2O2 HRP-luminol luminescence | inhibition, % (concentration not given with the values) | 290,000 tested, 3.8% active | AID 485317;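 active = mean and each replicate at 75% or more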;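 also: stock transfer was 7.5 nL into about 7.5 µL; 0% = neutral wells and 100% = wells with inactivated enzyme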
rRNA inh HTS OD600: recorded beside rRNA inh HTS, whose call it bears; OD600 change, %; measured here: OD600 growth;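 optical density of the mix in the first replicate; 0 = DMSO median and -100 = no signal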
rRNA inh HTS RFP: second read-out of rRNA inh HTS, no call of its own (marks repeat the call); RFP signal change, %; measured here: RFP humanized mutant strains;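 first replicate; 0 = DMSO median and -100 = no signal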
* hit, by the source's call; i = inactive; · = not tested or not shown. Only part of the results is shown; the hit share may differ from the screen's.

SMILES	B2AR ag	E coli growth	rRNA inh HTS	rRNA inh HTS OD600	rRNA inh HTS RFP	UCH37 inh	HNF4A DNA FP	FGF22 binding	ALR inh
O=C1C2C3C=CC(C3)C2C(=O)N1Cc1ccc(CN2C(=O)C3C4C=CC(C4)C3C2=O)cc1 (stereo not drawn)	-3	0.68	·	·	·	0.6	-1.7	·	-5
Cc1ccc(S(=O)(=O)N2CCC(C(=O)N[C@@H](Cc3ccccc3)C(=O)O)CC2)cc1	3	0.72	·	·	·	6.0	6.8	·	1
COc1ccc(C2CC(=O)C3=C(C2)Nc2ccccc2N(C(=O)CCC(=O)O)C3c2ccc(F)cc2)cc1OC (stereo not drawn)	4	0.69	6	5	2.2	-7.2	2.9	i	0
CCOc1cc(NC(=S)Nc2cccc(OC)c2)c(OCC)cc1NC(=O)C(C)C	2	0.7	·	·	·	-1.9	-2.4	·	-19
CCN(CC)c1ccc(CNCc2cccs2)cc1	1	0.65	5	-25	-0.6	0.1	0.0	·	99*
CCCNC(=S)N1CC2(C)CN(C(=O)C(=O)OCC)CC(C)(C1)C2=O	2	0.67	14	3	1.6	0.7	-0.4	i	-1
CCCCCCN1CCN(C2CN(Cc3ccc(F)cc3)S(=O)(=O)C2)CC1 (stereo not drawn)	·	·	7	-3	3.3	·	-1.9	i	·
CCOC(=O)c1cccc(NC(=O)CC2Oc3ccccc3NC2=O)c1 (stereo not drawn)	0	0.68	2	2	-1.5	2.4	2.9	i	2
COc1ccc(CCN(C)CCc2ccc(OC)c(OC)c2)cc1OC	-3	0.72	·	·	·	3.4	-3.4	i	0
CC(Sc1ccccc1)C(=O)NN=C1CCN(C)CC1 (stereo not drawn)	2	0.66	17	5	-1.7	2.2	-1.5	i	11
CC(C)c1ccc(NC(=O)CN2C(=O)COc3ccc(S(=O)(=O)N4CCOCC4)cc32)cc1	-6	0.73	8	15	0.8	4.3	-2.9	i	2
CC(C(=O)OCC(=O)c1ccc(Br)cc1)N1C(=O)C2C3CCC(C3)C2C1=O (stereo not drawn)	10	0.64	-2	-2	1.5	2.0	-2.6	·	-4
COc1ccc(N2CC(NS(=O)(=O)c3cccnc3)CC2=O)cc1 (stereo not drawn)	-1	0.67	3	5	0.9	1.7	-0.2	·	-2
Cc1nn(CC(=O)NCCN2CCOCC2)c(=O)c2cc3sccc3n12	-6	0.71	13	15	2.9	1.2	-4.2	i	-11
Cc1ccccc1N(CC(=O)NCC1CCCO1)C(=O)CCC(=O)Nc1nccs1 (stereo not drawn)	-2	0.65	2	10	2.8	-0.1	-0.8	i	·
CCOc1ccccc1NS(=O)(=O)c1c(C)[nH]c(C)c1C(=O)N1CCCCC1	-7	0.66	4	12	-3.6	3.5	0.8	i	-2
Cc1nnc(NC(=O)c2ccccc2C(=O)O)s1	5	0.62	·	·	·	0.4	1.1	·	1
CCOC(=O)CSc1n[nH]c(NS(=O)(=O)c2ccccc2C(F)(F)F)n1	7	0.69	8	-14	1.5	-1.7	3.3	i	-3
N#Cc1nc(Cc2cccc3ccccc23)oc1NCc1ccc2c(c1)OCO2	3	0.73	·	·	·	-3.1	3.0	·	-15
O=C(NCCc1ccc(F)cc1)c1ccc2nccnc2c1	-2	0.69	-3	7	-0.9	-4.3	3.9	i	-6
O=C(O)c1cncc(SCc2ccccc2)n1	-4	0.7	10	4	0.7	4.4	1.2	i	2
CC(C)(C)C1CCC(=NNC(=O)C(=O)NCc2cccnc2)CC1 (stereo not drawn)	0	0.69	9	10	3.1	0.8	0.9	·	17
CCn1cc(S(=O)(=O)NCCc2ccccc2OC)cn1	0	0.72	4	4	0.6	5.9	0.9	i	0
O=C(Nc1ccccc1C(=O)O)c1cccc(NC(=O)c2ccc(Br)o2)c1	41	0.66	·	·	·	-0.8	-3.9	·	33
O=C(c1ccccc1F)N1CCN(c2ccccn2)CC1	-10	0.64	0	5	-2.6	0.0	2.3	i	-12

Reformatted as comma-separated lines: entries from further up.
SMILES,B2AR ag,E coli growth,rRNA inh HTS,rRNA inh HTS OD600,rRNA inh HTS RFP,UCH37 inh,HNF4A DNA FP,FGF22 binding,ALR inh
O=C(NCCc1ccc(F)cc1)c1ccc2nccnc2c1,-2,0.69,-3,7,-0.9,-4.3,3.9,i,-6
O=C(O)c1cncc(SCc2ccccc2)n1,-4,0.7,10,4,0.7,4.4,1.2,i,2
CC(C)(C)C1CCC(=NNC(=O)C(=O)NCc2cccnc2)CC1 (stereo not drawn),0,0.69,9,10,3.1,0.8,0.9,·,17
CCn1cc(S(=O)(=O)NCCc2ccccc2OC)cn1,0,0.72,4,4,0.6,5.9,0.9,i,0
O=C(Nc1ccccc1C(=O)O)c1cccc(NC(=O)c2ccc(Br)o2)c1,41,0.66,·,·,·,-0.8,-3.9,·,33

Later entries.
SMILES	B2AR ag	E coli growth	rRNA inh HTS	rRNA inh HTS OD600	rRNA inh HTS RFP	UCH37 inh	HNF4A DNA FP	FGF22 binding	ALR inh
Cc1ccc2cccc(NC(=S)NC(=O)c3c(Br)cnn3C)c2n1	0	0.76	·	·	·	3.6	2.2	·	-13
COCCOC(=O)C1=C(C)NC2=C(C(=O)CC(C)(C)C2)C1c1ccc(N(C)C)cc1 (stereo not drawn)	-5	0.65	-7	-10	-4.3	4.8	3.8	i	32
CC1Cn2c(COc3ccccc3)nnc2S1 (stereo not drawn)	-8	0.74	9	13	-1.8	4.2	4.6	i	-3
O=C(OCc1nc2ccccc2s1)c1ccco1	1	0.67	-7	-4	3.3	1.6	-2.5	i	-4
COc1ccc(C2(C)NC(=O)N(CC(=O)Nc3ccc4c(c3)OCO4)C2=O)cc1OC (stereo not drawn)	9	0.72	·	·	·	-1.0	-3.1	·	-18
O=C1CCC/C(=N/NC(=O)c2sc3ccccc3c2Cl)C1	-100	·	2	5	-1.7	·	149	i	98*
Cc1ccc(NC(=O)Nc2ccc3c(c2)N(C)C(=O)CS3)nc1	11	0.7	-1	2	-2.0	-0.1	12	i	-3
CCc1nnc(NC(=O)CCC(=O)NCc2ccccc2Cl)s1	0	0.69	-4	0	-4.4	0.9	1.8	i	0
O=C1[C@H]2[C@@H](C3CC3)N3C(=O)CN(CC4CC4)C(=O)[C@@]3(Cc3ccccc3)[C@H]2C(=O)N1c1ccccc1	-2	·	10	1	-11	1.9	0.9	i	3
CN(C)S(=O)(=O)c1ccc(NC(=O)CCCNC(=O)c2ccc(Cl)cc2)cc1	1	0.66	-4	2	-1.1	-0.8	2.1	i	8
COc1ccc(C(=O)Nc2cccc(C(=O)N3CCCC3)c2)cc1	-3	0.72	·	·	·	4.8	-0.7	·	-4
Cc1c(NC(=O)COc2ncnc3ccccc23)c(=O)n(-c2ccccc2)n1C	3	0.78	·	·	·	1.3	0.7	·	2
COc1ccc(NS(=O)(=O)c2cccc(C(=O)N3CCCC3)c2)cc1	-3	0.65	5	-2	-1.2	2.6	-0.1	i	-1
CC1(CC(=O)Nc2ccccc2)NC(=S)N(c2ccccc2)N1 (stereo not drawn)	1	0.72	-1	4	0.6	1.3	-2.9	i	·
O=C(Cn1cccc1)N1CCN(c2ccc(F)cc2)CC1	-2	0.72	2	11	-1.1	1.1	-1.5	i	·
CCc1c(C)nc2[nH]nc(-c3ccccc3)n2c1=O	1	0.68	·	·	·	0.0	-2.2	·	36
Nc1cc(C(=O)O)ccc1Nc1ccc(F)c(F)c1	5	0.68	·	·	·	4.9	-2.5	·	97*
COc1ccc(/C=N/n2c(-c3n[nH]c4c3CCC4)n[nH]c2=S)cc1OC	6	·	·	·	·	·	-0.4	·	-4
Cc1ccc(C)c(NC(=O)CN(C)C(=O)c2ccc(Cl)nc2)c1	-1	0.68	4	5	-2.0	-0.2	-3.7	i	·
CC(C)CCC(CCNCc1ccccn1)c1ccc2c(c1)OCO2 (stereo not drawn)	15	0.62	-70	-80	-26	6.6	-2.3	i	-3
O=C(CCl)Nc1cccc(S(=O)(=O)N2CCCCCC2)c1	-2	0.7	·	·	·	6.0	-1.8	·	4
Cc1csc(NC(=O)CSc2nc(C(C)C)nc3c2c(=O)n(C)c(=O)n3C)n1	18	0.72	-4	-2	-3.5	3.2	-2.9	i	-7
O=C(c1cc(COc2cccc(C(F)(F)F)c2)on1)N1CCC(Oc2cccnc2)CC1	-8	0.68	-49	-69	-14	0.6	2.0	i	1
CC(=O)NO	·	·	·	·	·	2.2	-2.6	·	-2
O=C1COc2ccc(C(=O)CSc3nnc(NCc4ccccc4)s3)cc2N1	1	0.7	-5	1	5.0	1.4	4.3	i	-11
(continued)
SMILES	B2AR ag	E coli growth	rRNA inh HTS	rRNA inh HTS OD600	rRNA inh HTS RFP	UCH37 inh	HNF4A DNA FP	FGF22 binding	ALR inh
COc1ccc(C(=O)OCC(=O)Nc2ccc(Cl)cn2)cc1	1	0.71	20	15	1.5	0.7	0.9	i	1
Cc1nc(NC(=O)c2cccc(-c3cc4ccccc4oc3=O)c2)ccc1Br	41	0.69	·	·	·	-78	8.7	·	·
Cc1ccc(CNC(=O)CS(=O)(=O)c2ccccc2)cc1	5	0.65	1	4	0.9	0.9	1.0	i	-6
O=C(NCCO)c1cc(-c2cc(C(=O)NCCO)c3ccccc3n2)nc2ccccc12	4	0.71	8	1	4.6	-6.8	3.7	i	1
CCOC(=O)CN1C(=O)/C(=C/c2c(F)cccc2Cl)Oc2ccccc21	-6	0.72	-6	-8	-6.8	-65	0.1	i	-8
COc1ccc(C)cc1NC(=O)CCC(=O)Nc1nnc(C2CCCCC2)s1	-10	0.65	7	9	1.2	3.0	0.8	i	1
O=C(Cn1cc2c(n1)CCCC2)NCc1cccc(Cl)c1	1	0.68	2	-2	-2.1	1.3	0.1	i	1
CCCn1c(NC(=O)C2CCN(S(=O)(=O)c3cccs3)CC2)nc2ccccc21	-6	0.74	·	·	·	4.1	1.6	·	-6
COC(=O)c1c(C)[nH]c(C(=O)OCc2ccc(F)cc2)c1C	-3	0.75	·	·	·	5.4	3.2	·	-12
COc1ccc(N(C(=O)CNC(=O)c2cccs2)C(C(=O)NCC2CCCO2)c2ccc(OC)c(OC)c2)cc1 (stereo not drawn)	-8	0.68	15	13	1.8	1.7	-0.2	i	-12
CCOC(=O)C(=O)Nc1cc([N+](=O)[O-])ccc1C	0	0.69	·	·	·	-1.2	-0.5	·	-2
Cc1oc2c(c(C)cc3oc(=O)c(CC(=O)NCC(=O)NCC(=O)NCC(C)O)c(C)c32)c1C (stereo not drawn)	14	0.65	4	5	-1.5	-215	3.4	i	-4
CC(C)NC(=O)c1cccc(NC(=O)CC2SC(N3CCCCC3)=NC2=O)c1 (stereo not drawn)	-3	0.69	0	8	-1.9	3.5	0.3	i	·
C#CCOCCOCCOCCNc1nc(N2CCOCC2)nc(N2CCN(C(=O)[C@H]([C@@H](C)CC)n3cc(CCCN=C(N)N)nn3)CC2)n1	2	·	-1	-11	0.2	1.7	2.7	i	-3
Cc1cc(NC(=O)Nc2ccc(OCc3ccccc3)cc2)n(C)n1	0	0.72	·	·	·	2.1	5.0	·	5
COc1cccc(NC(=O)CN(C)C(=O)CNC(=O)c2sc3ccccc3c2Cl)c1	-10	0.69	4	11	2.2	5.5	-1.6	i	-3
O=C(CN1C(=O)C2CC=CCC2C1=O)Nc1nnc(SCc2ccc(Cl)cc2)s1 (stereo not drawn)	6	0.71	·	·	·	-1.6	1.2	·	-6
COCCn1nnnc1CN(CCc1ccccc1)Cc1cc2ccc(C)cc2[nH]c1=O	-21	0.8	·	·	·	-4.3	-1.6	·	·
O=C1CCc2cc(S(=O)(=O)NCCc3ccccc3)cc3c2N1CC3	-3	0.67	4	4	-0.7	-0.6	-0.6	i	3
